Calb FLC = affects C. albicans growth with fluconazole. C. albicans CaCi-2 (fluconazole-resistant clinical isolate) + fluconazole, Alamar Blue growth, 48 h. growth inhibition, % (concentration not given with the values). actives 0.57% (n = 300,000);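 active = most replicates above 75%; inconclusive = exactly half above 75%; inactive = most below 75%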;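 note: all wells also contain fluconazole at 8 µg/ml as a sub-toxic cotreatment; 0% = median of DMSO wells and 100% = median of geldanamycin control wells; wells of about 8 µL received 7.5 nL stock; the first replicate is given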
A1 inh = inhibitors of the anti-apoptotic protein A1, read as caspase activation; actives 0.066% (n = 330,000); caspase activation, % (concentration not given with the values); MEF A1-2A-BIM cells, Caspase-Glo 3/7 luminescence, 3 h; percent of clofoctol response, vehicle zero;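 active = over half of replicate activation scores above 10%, or exactly half above 10 with the replicate mean above 10; inconclusive = replicate mean below 10 yet half the replicates above 10; inactive = over half of replicates below 10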;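 note: wells of about 30 µL received 50 nL stock; many hits fall short of the cut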
RanGTP-Impb inh = inhibitors of RanGTP-importin-beta interaction, primary screen, biochemical, FRET, CFP-Ran, YFP-importin-beta, homogeneous; cell-free CFP-Ran/YFP-importin-beta FRET ratio; inhibition, % (test concentration not listed); actives 1.1% (n = 300,000);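 active = most replicates above 15%; inconclusive = exactly half above 15%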;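 note: 0% = DMSO wells and 100% = Ran loaded with GDP instead of GTP; wells of about 40 µL received 100 nL stock; the first replicate is given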
Beta cell apopt = blocks beta cell apoptosis | INS-1E cytokine-induced death, ATP luminescence, 48 h; percent of positive-control rescue, neutral wells zero | protection from apoptosis, % (concentration not given with the values) | actives 0.8% (n = 300,000) | AID 435005;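 active = all replicates at 75% or more, or half of them and the mean; inconclusive = half reach 75% but not the mean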;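 note: 0% = cytokine-treated negative control wells and 100% = positive control rescue; higher means more ATP so stronger rescue from cytokine killing; wells of about 40 µL received 100 nL stock; the first replicate is given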
rRNA inh HTS = inhibitors of bacterial rRNA selective over humanized ribosomes. GFP signal change (wild-type ribosome), % (no concentration beside the values). actives 1.6% (n = 350,000). E. coli WT GFP vs humanized-ribosome RFP mutants, fluorescence, 24 h; stronger effect = lower value; DMSO median 0, no signal -100;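 active = significant combined selectivity score with lowered wild-type GFP, culture density cut under 30%, mutant RFP and density less affected; inactive = any of these conditions unmet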; note: one replicate is shown; some compounds called inactive have numbers as strong as hits
MLL AF4-AF9 inh = MLL-AF4/AF9 protein interaction inhibition; P42568; AlphaScreen, biotin-AF4 peptide binding to FLAG-AF9; inhibition, % at 10 µM; actives 0.47% (n = 350,000);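 active = every replicate reaching a set inhibition limit, whatever the replicate mean, cut at about 25% in these data; inconclusive = mean inhibition reaches that limit but some replicates miss it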;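 note: 0% = plate neutral control median and 100% = total signal loss; the record names both 10 and 1 µM as test concentration; the first replicate is given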
Target sequence (P42568 whole entry, looked up): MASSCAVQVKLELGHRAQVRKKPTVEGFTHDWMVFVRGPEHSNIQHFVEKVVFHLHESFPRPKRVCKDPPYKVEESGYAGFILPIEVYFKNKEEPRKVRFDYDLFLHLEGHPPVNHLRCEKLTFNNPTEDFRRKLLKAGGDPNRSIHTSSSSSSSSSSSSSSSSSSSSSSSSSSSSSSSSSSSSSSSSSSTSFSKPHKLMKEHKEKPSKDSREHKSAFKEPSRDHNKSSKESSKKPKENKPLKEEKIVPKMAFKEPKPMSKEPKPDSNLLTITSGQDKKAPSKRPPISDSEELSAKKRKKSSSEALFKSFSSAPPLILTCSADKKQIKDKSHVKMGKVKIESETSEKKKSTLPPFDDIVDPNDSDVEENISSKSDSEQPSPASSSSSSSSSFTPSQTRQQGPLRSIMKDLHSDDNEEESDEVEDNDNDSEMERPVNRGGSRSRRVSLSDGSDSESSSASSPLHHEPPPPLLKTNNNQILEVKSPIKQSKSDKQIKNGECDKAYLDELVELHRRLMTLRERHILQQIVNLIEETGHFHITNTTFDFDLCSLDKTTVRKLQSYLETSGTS
T cruzi repl = blocks replication of Trypanosoma cruzi. inhibition, % (test concentration not listed). actives 1.4% (n = 300,000). AID 1885. T. cruzi beta-gal in NIH3T3, luminescence, 90 h;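 active = mean inhibition across valid replicates above about 55%, limit read from the data; inconclusive = mean below that limit but half or more replicates reach it; inactive = mean below it, under half of replicates reach it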;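 note: signal also drops with host cell toxicity which is not excluded here; 0% = plate median of DMSO wells and 100% = zero luminescence signal; higher percent means less beta-gal luminescence so fewer parasites; stock transfer was 50 nL into about 50 µL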
Vif TR-FRET = inhibitors of Vif binding to APOBEC3G peptide, primary screen, biochemical, TR-FRET, GST-Vif 1-94, biotin-A3G peptide, dose response retest (AID 1117319); TR-FRET GST-Vif / biotin-A3G peptide binding; higher % means a stronger effect; test concentration not given here; strong numbers were not always called active; actives 0.57% (n = 260,000); one-dose inhibition, %; IC50 in µM for titrated hits;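 active = above the screen mean plus three standard deviations and confirmed in dose response; inconclusive = results disagree or hit not tested in dose response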;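 note: Vif residues 1-94 fused to GST binding biotinylated APOBEC3G peptide 110-148; 0% = full assay without inhibitor and 100% = GST in place of GST-Vif; retest series ran down from 100 µM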
rRNA inh HTS OD600 = also measured in rRNA inh HTS; calls as there; OD600 change, %; measured here: OD600 growth;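 optical density of the mix in the first replicate; 0 = DMSO median and -100 = no signal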
rRNA inh HTS RFP = recorded beside rRNA inh HTS, whose call it bears; RFP signal change, %; measured here: RFP humanized mutant strains;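 first replicate; 0 = DMSO median and -100 = no signal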
Active calls of the source: *; ? = inconclusive; / = no result given; & = joins results of further samples. These rows are one share of the data. The share of hits here may be higher or lower than overall.

Compound,Calb FLC,A1 inh,RanGTP-Impb inh,Beta cell apopt,rRNA inh HTS,rRNA inh HTS OD600,rRNA inh HTS RFP,MLL AF4-AF9 inh,T cruzi repl,Vif TR-FRET
Cc1n[nH]c(C)c1C(=O)CC1(O)C(=O)N(CCc2ccccc2)c2ccc(Br)cc21 (stereo not given),5,1.1,1.5,0,/,/,/,/,11,-1%
CCN(CC)C(=O)COc1ccc(/C(C)=N/NC(=O)c2ccccc2Br)cc1,-3,-0.9,/,-3,18,10,3.6,-3.7,-3,2%
C#CCNC(=O)C1=C[C@H](c2csc3ccccc23)[C@@H](CCCO)[C@H](OCC)O1,-2,1.0,-0.2,-7,-10,-3,-9.0,3.5&0.8,5,7%
Cc1ccc(-n2ncc3c(NCCCOC(C)C)ncnc32)c(C)c1,21,0.4,-2.3,-5,/,/,/,/,-12,31%
O=C(Cn1nc(C(=O)O)c2ccccc2c1=O)Nc1ccc2c(c1)C(=O)c1ccccc1C2=O,-5,-0.8,-2.2,-5,/,/,/,/,-1,/
CCn1cc(C(=O)NCc2ccco2)c(=O)c2cc(S(=O)(=O)N3CCc4ccccc4C3)ccc21,12,0.0,?,5,/,/,/,/,56*,8%
O=S(=O)(NCc1ccco1)c1ccccc1Br,-1,0.4,5.5,-2,4,2,-7.3,-1.1,-7,/
Cc1nnc(NC(=O)CSc2nnc3c(n2)[nH]c2ccc(Br)cc23)s1,4,0.2,0.3,-1,4,6,-2.6,0.6,0,/
COCC(=O)N(c1ccccc1)C(C)C(=O)OC (stereo not given),-23,0.3,1.7,1,7,12,5.7,1.6,-7,/
O=C(CCSc1ccc(Cl)cc1)NN=C1CCCCCC1,-16,0.5,-5.1,-5,12,-3,1.8,0.9,-23,-3%
COc1ccc(-c2n[nH]c(=S)n2/N=C/C=C\c2ccccc2OC)cc1,6,0.4,-1.2,4,/,/,/,/,-15,?
CC(=O)Nc1ccc2nc(C3CCCCC3)[nH]c2c1,5,1.6,1.3,-2,/,/,/,/,6,-9%
CCCNC(=O)c1cc(S(=O)(=O)N2CCCCC2)c[nH]1,3,0.1,2.2,-4,/,/,/,/,-6,/
COc1ccc(C(=O)NNC(=O)CNC(=O)C2CCCCC2)cc1,-15,-0.2,0.2,2,/,/,/,-0.6,4,11%
COc1cccc(/C=N/Nc2ccc(Cl)nn2)c1,/,-0.1,5.9,0,2,-7,-1.2,-1.9,-13,-11%
C(=N\N=C\c1ccncc1)/c1ccncc1,3,-0.4,1.5,2,9,12,-2.2,2.4,-22,/
CCOC(=O)c1ccccc1NC(=O)c1ccc2nccnc2c1,?,1.5,3.4,1,/,/,/,-2.8,8,?
COc1cc(/C=C2/SC(=O)N(Cc3ccccc3Cl)C2=O)ccc1OCc1ccncc1,-6,0.5,2.1,3,/,/,/,/,35,2%
COc1ccc(-n2c(C)nc3cc(C(=O)O)ccc32)cc1,-4,0.0,-0.6,-2,/,/,/,/,-17,3%
CC(=O)c1ccc(NC(=O)Cn2c3ccccc3c3nc(=O)cc(C)n32)cc1,-6,1.3,1.4,5,-5,-3,-8.7,-0.6,-3,-5%
COCCCN(CC(=O)Nc1ccc(F)cc1)S(=O)(=O)c1cccs1,/,-0.3,/,7,-1,-8,-3.2,-2.0,/,/
CCCCn1c(N)c(N(CCOC)C(=O)CSc2nnc(C)n2-c2ccc(OC)cc2)c(=O)[nH]c1=O,3,0.5,6.7,/,0,1,-1.3,-15,-7,5%
CCn1c2ccccc2c2cc(/C=N/NC(=O)c3ccccc3)ccc21,21,0.1,?,14,/,/,/,/,28,?
CN(C)C(=O)c1cnc(-c2ccccc2)nc1-c1ccccc1,7,2.5,7.5,-2,-11,-9,-2.6,-0.7,-10,-7%
C=CCN1C(c2cccc(C(F)(F)F)c2)=CS/C1=C(/C#N)c1nnc(N2CCOCC2)n1-c1ccccc1,-7,0.2,5.3,4,/,/,/,17,22,13%
CC1(C)C(c2ccccn2)=[N+]([O-])C(C)(C)N1O,21,0.0,-4.0,0,/,/,/,/,-12,-5%
COc1ccc(C(=O)N2CCN(CCc3ccccc3)CC2)cc1[N+](=O)[O-],18,0.0,4.0,0,9,7,-0.6,-4.5,-7,-1%
Cc1cc(C(=O)N2CCN(C(=O)c3ccco3)CC2)ccc1[N+](=O)[O-],-4,1.4,-0.5,-4,0,-11,-10,-11,1,/
Cc1nn(CC(=O)NCCc2ccc(Cl)cc2)c(C)c1[N+](=O)[O-],11,0.6,2.3,3,/,/,/,/,-7,-2%
CN1CCN(c2ccc(CNS(=O)(=O)c3ccc(F)cc3Cl)cc2)CC1,9,0.1,2.1,0,1,12,-0.9,1.8,25,/

Next results follow.
Compound,Calb FLC,A1 inh,RanGTP-Impb inh,Beta cell apopt,rRNA inh HTS,rRNA inh HTS OD600,rRNA inh HTS RFP,MLL AF4-AF9 inh,T cruzi repl,Vif TR-FRET
NC1=NC[C@H](c2ccccc2)N1CCc1cccc(F)c1,3,0.9,0.9,-3,-8,-16,4.3,4.8,-10,4%
O=C(CSc1nnc(SCc2ccccc2)s1)NNC(=S)Nc1ccccc1,27,1.3,-3.1,-3,-19,0,5.0,-6.4,6,?
CCCc1cc(=O)[nH]c(SCC(=O)Nc2cc3c(cc2C(C)=O)OCO3)n1,5,-0.1,1.9,-1,/,/,/,/,2,>100µM*
COc1cc(C(=O)N/C(=C\c2cn(C)c3ccccc23)C(=O)NCCCn2ccnc2)cc(OC)c1OC,34,0.0,-1.5,0,0,-9,-1.7,5.8,-19,/
CCCCCNC(=O)C(C#N)c1nc2ccccc2nc1N1CCCC1 (stereo not given),-5,0.2,20*,-3,/,/,/,/,-1,7%
COc1ccc2nc(N3CCCC(C(=O)NCCCN4CCN(C)CC4)C3)sc2c1 (stereo not given),-20,0.0,1.0,/,/,/,/,/,18,3%
CC(=O)Nc1ccc(NC(=O)C(C)OC(=O)C(C)SCC(=O)Nc2ccc(C)cc2)cc1 (stereo not given),8,1.3,5.0,0,9,12,4.2,-0.9,5,-8%
CC(/C=N/NC(=O)c1ccc(CN2c3cccc4cccc(c34)S2(=O)=O)cc1)c1ccccc1 (stereo not given),-7,0.1,2.2,0,/,/,/,/,-5,-3%
N#Cc1c(Cn2cncn2)nc(=O)n(-c2ccccc2)c1N,2,0.6,1.8,/,16,13,3.2,-1.3,0,0%
C=CCn1c(SCc2ccc(OC)cc2)nnc1-c1cccnc1,-5,0.5,4.8,-1,/,/,/,/,-11,2%
CCc1nc(SCC(=O)N2CCc3cc(OC)c(OC)cc3C2)c(C#N)cc1C,/,-0.3,1.5,-6,/,/,/,/,15,-2%
Cc1cc(NC(=O)CCC(=O)N(CCC(C)C)CC(=O)NCC2CCCO2)no1 (stereo not given),-14,1.2,-1.4,-2,/,/,/,/,3,-1%
O=C(Oc1ccccc1)c1ccc(-n2cnnn2)cc1,3,0.3,1.3,-2,/,/,/,/,3,6%
CCn1c(C)nnc1SCC(=O)NC1CCCC1,-5,-0.1,?,1,7,9,-0.9,-3.7,-8,2%
CCN(CC)C(=O)CN(c1cccc([N+](=O)[O-])c1)S(=O)(=O)c1ccccc1,0,0.6,-3.4,3,10,7,-1.5,-2.1,-8,9%
COc1ccccc1OCC(=O)NCCCn1ccnc1,29,-0.3,1.0,3,22,9,4.9,4.7,-16,-10%
Cc1ccc2c(c1C)OC(=O)CC2(C)C,-4,-0.3,-1.9,-9,/,/,/,/,-9,-6%
Cc1ccc(C(=O)N2CCN(S(=O)(=O)N3CCOCC3)CC2)cc1,-2,-0.6,1.5,-8,14,12,3.0,-0.8,-1,2%
CCOc1ccccc1-c1n[nH]c(=S)o1,-1,0.9,2.9,-3,-1,2,-1.0,/,-8,-19%
COc1cc(C(=O)NCC(=O)OCC(=O)N2CCc3ccccc32)cc(OC)c1OC,17,0.5,1.3,-2,5,1,-2.3,-1.2,-14,16%
CCCCC(=O)Nc1c(-c2ccc(OC)c(OC)c2)c(=O)c2ccccc2n1C,8,0.8,0.3,/,5,5,-1.0,-0.3,-7,-7%
CC12CN3CC(C)(CN(C1)C3c1c[nH]c3ccccc13)C2=O (stereo not given),5,0.8,-1.9,-4,/,/,/,/,5,/
CCN(CCNS(=O)(=O)c1ccc2c(c1)oc(=O)n2C)c1ccccc1,-2,-0.4,-3.3,-3,-4,-20,0.0,0.4,2,4%
O=C(CCN1CCOCC1)NNC(=O)Nc1cccc(Cl)c1,-3,0.1,-1.3,-6,21,10,-0.1,-1.2,-5,/
Clc1ccc(-c2ccc(C=Nc3ccc(N4CCOCC4)cc3)o2)cc1,-2,-0.6,5.5,6,-9,4,6.2,5.1,-2,7%
COC(=O)C1=C(C)NC(C)=C(C(=O)OC)C1C(=O)OCC(=O)c1ccc(Br)cc1,/,-0.7,/,1,-3,-6,-1.0,1.1,/,-4%
Cc1occc1C(=O)NN1C(=O)C2C3CCC(O3)C2C1=O (stereo not given),26,-0.2,1.3,-5,8,2,0.7,6.4,-12,7%
NC(=O)CC(NC(=O)c1ccc(Br)cc1)c1ccc(NC2CCCCC2)c([N+](=O)[O-])c1 (stereo not given),-17,0.7,-6.4,-4,5,18,3.0,-11,6,/
CCn1c(CC(=O)Nc2ccccc2C)nnc1SCC(=O)NC1=NCCS1,-1,0.6,-0.6,-3,4,14,-1.6,-2.3,-7,1%
CC(=O)Nc1ccc(S(=O)(=O)N2CCN=C2SCc2cccc(C)c2)cc1,0,0.4,2.7,7,-13,-23,-0.2,0.9,32,1%

Screens: PubChem BioAssay, several laboratories
